From PubChem BioAssay
GIRK2 activ: activators of human GIRK2 potassium channels; 0.05% of 63,000 active; calls only for hits at 25 µM; HEK293-GIRK2 thallium flux, Thallos fluorescence; P48051;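 active = among the strongest 0.2% of first-round signals and kept after retests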;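 also: first round at about 10 µM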
Target sequence (P48051 whole entry, looked up): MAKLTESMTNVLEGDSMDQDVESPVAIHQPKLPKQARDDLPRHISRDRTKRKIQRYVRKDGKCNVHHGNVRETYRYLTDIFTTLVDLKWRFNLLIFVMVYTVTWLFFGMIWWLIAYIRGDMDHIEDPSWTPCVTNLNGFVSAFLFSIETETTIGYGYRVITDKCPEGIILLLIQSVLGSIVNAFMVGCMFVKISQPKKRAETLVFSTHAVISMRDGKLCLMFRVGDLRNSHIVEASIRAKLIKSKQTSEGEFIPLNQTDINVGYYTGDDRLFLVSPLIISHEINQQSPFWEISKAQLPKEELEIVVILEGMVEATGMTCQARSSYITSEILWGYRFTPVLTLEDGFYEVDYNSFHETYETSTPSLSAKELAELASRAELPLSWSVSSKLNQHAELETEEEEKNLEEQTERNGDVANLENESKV
Calls only; i = inactive. This is a subset (hit frequency here may not be typical).

canonical_smiles	GIRK2 activ
Cc1ccc(N(C)S(=O)(=O)c2ccsc2C(=O)Nc2cc(C)cc(C)c2)cc1	i
CCOCCn1c(N2CCN(Cc3ccc(C)cc3)CC2)nc2c1c(=O)[nH]c(=O)n2C	i
CCOc1ccc(NC(=O)Nc2ccc(Nc3ccc(C)nn3)cc2)cc1	i
C=CCn1c(=O)c2ccccc2n(Cc2nc(-c3ccc4c(c3)OCO4)no2)c1=O	i
COc1cc(NC(=O)COc2ccccc2F)ccc1N1CCCCC1=O	i
Clc1ccccc1Cn1c(CN2CCOCC2)nc2ccccc21	i
CC(Oc1ccccc1)C(=O)N1CCC(c2nnc(-c3ccoc3)o2)CC1 (centres undefined)	i
COCCCn1cnc2c(-c3ccccc3)cn(CC(=O)Nc3ccc(C(C)C)cc3)c2c1=O	i
Cc1ccn(CC(C)Nc2ncc3c(=O)n(-c4ccccc4F)c(=O)[nH]c3n2)n1 (centres undefined)	i
COCCn1c(-n2nc(C)c(C)c2C)nc2c1c(=O)n(CCN1CCCCC1)c(=O)n2C	i
O=C(CSc1nc2ccccc2o1)NCCOc1ccc(-c2ccc(F)cc2)nn1	i
Cc1oc2cc(OCC(N)=O)ccc2c(=O)c1-c1ccc(Br)cc1	i
O=S(=O)(NCC1(O)CCOc2ccccc21)c1ccc(Br)s1 (centres undefined)	i
Cc1cc(C)c2nc(C)cc(NC(=O)Cc3cccs3)c2c1	i
COc1ccccc1NC(=O)c1c(O)c2cccnc2n(-c2ccccc2)c1=O	i
CC(=O)Nc1ccc(NC(=O)CC2Sc3ccccc3NC2=O)cc1 (centres undefined)	i
CC1=NN(CC(N)=O)c2nc3c(c(=O)n(Cc4cccc(C)c4)c(=O)n3C)n2C1	i
O=C(O)Cn1c(=O)nc(-c2ccccc2)c2ccccc21	i
Cc1ccc(S(=O)(=O)N(C)c2cc(S(=O)(=O)N(C)c3c(C)cccc3C)c(C)cc2C)cc1	i
COc1ccc(/C=C/C(=O)NCC(C)(O)CSC)cc1OC (centres undefined)	i
O=C(Cn1nc2c3sccc3ncn2c1=O)Nc1ccc2c(c1)OCCO2	i
COc1ccc(NC(=O)CSc2nnc3ccc(C(=O)Nc4cccc(F)c4)cn23)cc1Cl	i
Cc1c(NC(=O)c2nnn(-c3ccc(F)cc3)n2)c(=O)n(-c2ccccc2)n1C	i
Cn1cc(-c2ccc(F)cc2)c2ncn(CC(=O)N3CCN(c4ccccc4)CC3)c(=O)c21	i
CCOc1ccc(NC(=O)CSc2cc(C)nc3c(-c4ccccc4)cnn23)cc1	i

By substructure: the compounds so far with fluorine.
canonical_smiles	GIRK2 activ
COc1cc(NC(=O)COc2ccccc2F)ccc1N1CCCCC1=O	i
Cc1ccn(CC(C)Nc2ncc3c(=O)n(-c4ccccc4F)c(=O)[nH]c3n2)n1 (centres undefined)	i
O=C(CSc1nc2ccccc2o1)NCCOc1ccc(-c2ccc(F)cc2)nn1	i
COc1ccc(NC(=O)CSc2nnc3ccc(C(=O)Nc4cccc(F)c4)cn23)cc1Cl	i
Cc1c(NC(=O)c2nnn(-c3ccc(F)cc3)n2)c(=O)n(-c2ccccc2)n1C	i
Cn1cc(-c2ccc(F)cc2)c2ncn(CC(=O)N3CCN(c4ccccc4)CC3)c(=O)c21	i

Carrying on:
canonical_smiles	GIRK2 activ
Cc1cc(N)nc(Nc2ccc(C(N)=O)cc2)n1	i
COc1ccccc1Nc1cc(C(=O)N2CCSCC2)nc2c(OC)cccc12	i
Cc1ccc2nc(-c3ccc(NC(=O)c4ccc(=O)n(C)n4)cc3)sc2c1	i
COc1ccc(Nc2nn3c(=O)c4cc(OC)c(OC)cc4nc3s2)cc1	i
COc1ccc(S(=O)(=O)NCC(c2ccc(C)cc2)N2CCN(C)CC2)cc1 (centres undefined)	i
O=C(Nc1nc(CCC(=O)N2CCN(C(=O)c3ccco3)CC2)cs1)NC1CCCCC1	i
CCOC(=O)CCC(=O)NC1CCCC(OC(=O)Nc2ccc(F)cc2)C1 (centres undefined)	i
COc1ccc(C2(CNS(=O)(=O)c3ccc(OC)c(Cl)c3)CCOCC2)cc1	i
CC(C)(C)c1cc(NC(=O)c2cc(OCc3ccccc3)no2)on1	i
CC(C)Oc1ccc(C(=O)CN2C(=O)c3ccccc3OC(C)C2=O)cc1 (centres undefined)	i
Cc1ccc(Cn2c(=O)c3ccccc3n3c(CCC(=O)N4CCN(c5cccc(C(F)(F)F)c5)CC4)nnc23)cc1	i
Cc1nccn1-c1cc(NCCNC(=O)C(C)(C)Oc2ccc(Cl)cc2)ncn1	i
Cc1cccc(NC(=O)CN2CCN(Cc3nc4ccccc4n3C)CC2)c1C	i
C=CCc1cccc(/C=N\NC(=O)CN2CCN(Cc3ccccc3)CC2)c1O	i
Cc1ccnc(NS(=O)(=O)c2ccc(NC(=O)c3ccc(-n4ccnc4)nn3)cc2)n1	i
COc1cccc(N2CC(C(=O)N3CC(c4nc(Cc5ccccc5)no4)C3)CC2=O)c1 (centres undefined)	i
CN(C)c1cccc(C(=O)NCCCS(=O)(=O)N2CCN(c3ccc(F)cc3)CC2)c1	i
O=C(COc1ccc(Cl)cc1)N1CCOC2(CCOCC2)C1	i
Cc1cc(C)n(C(=O)c2sccc2S(=O)(=O)N(C)c2ccc(F)c(F)c2)n1	i
O=C(CSc1nnc(N2CCN(c3ccccc3)CC2)s1)c1ccccc1	i
O=C(Cc1cccs1)N1CCN(C(=O)C2CC2c2ccc3c(c2)OCO3)CC1 (centres undefined)	i
O=C(C1CC1c1ccc(F)cc1)N1CCN(C(=O)C2(c3ccccc3)CCOCC2)CC1 (centres undefined)	i
Cc1cc(C)cc(-c2nnc(Cc3nc(-c4ccc(Cl)cc4)no3)o2)c1	i
Cn1c(=O)n(Cc2cccnc2)c(=O)c2c(N3CCN(C(=O)C4CC4)CC3)ccnc21	i
CC1(C)Cc2cccc(OCC(=O)NCC3CCN(C(=O)/C=C/c4ccco4)CC3)c2O1	i
COc1cc(C(=O)Nc2nnc(-c3cccc(SC)c3)o2)cc(OC)c1OC	i
O=C(Nc1ccc2c(c1)C(=O)NCC2)Nc1ccccc1C(F)(F)F	i
COc1ccc(C(C)(C)C)cc1S(=O)(=O)NC1CC(C)(C)NC(C)(C)C1	i
COC(=O)c1ccc(S(=O)(=O)NCCn2nc(C)cc2C)cc1	i
CNC(=O)CCNS(=O)(=O)c1ccc(C)c(N(C)S(C)(=O)=O)c1C	i
COCCCNC(=O)C(=O)Nc1ccc(Cl)cn1	i
Cc1nc(Nc2ccccn2)cc(N2CCN(C(=O)c3cccc(F)c3)CC2)n1	i
Cc1ccc(Cl)cc1NC(=O)Cn1nc2ccc(SC(C)C)nn2c1=O	i
O=C(Nc1nc2c(s1)CN(C(=O)CN1C(=O)CCC1=O)CC2)c1ccccn1	i
COc1ccc2c(c1)c(CC(=O)NCCF)c(C)n2C(=O)c1ccc(Cl)cc1	i
COc1ccc(CNC(=O)c2nn(-c3ccccc3)c3ccccc3c2=O)c(OC)c1	i
Cc1nnc(C2CCCN(C(=O)CSc3ccc(F)cc3)C2)s1 (centres undefined)	i
CCCCCCC(Sc1nc(Cl)cc(NCc2ccc(-c3ccccc3)cc2)n1)C(=O)O (centres undefined)	i
COCCNC(=O)NCC1CCN(C(=O)OC)CC1	i
CSc1ccc(/C=C2\C=C(CC(=O)NCCCc3ccccc3)c3cc(F)ccc32)cc1	i
Cc1noc(C2CCCN2C(=O)c2cc(-c3ccccc3)n[nH]2)n1 (centres undefined)	i
COC(=O)c1ccc(NC(=O)C(=O)NN2CCN(C)CC2)cc1	i
COc1ccccc1N1C(=O)N(c2ccc([N+](=O)[O-])cc2)C2CS(=O)(=O)CC21 (centres undefined)	i
Cc1ccnc(Nc2cc(N3CCN(C(=O)Nc4ccc5c(c4)OCO5)CC3)nc(C)n2)c1	i
Cc1nc2cc(NC(=O)C3CSCCC(=O)N3)ccc2s1 (centres undefined)	i
O=C(O)CCC/C=C\C[C@@H]1C(=O)C[C@@H](O)[C@@H]1/C=C/[C@@H](O)CC1CCCCC1	i
COc1ccc2nc(N(CCN3CCOCC3)C(=O)C3CCCCC3)sc2c1	i
O=C(NCc1ccc(Cl)cc1)c1cc(=O)c(OCc2ccc(F)cc2)co1	i
O=C(CSc1nccn1-c1cccc(C(=O)NCc2ccccc2)c1)NCc1ccc(F)cc1	i
O=C1CCCN1CCCNc1nc2c(S(=O)(=O)c3ccccc3)nnn2c2ccc(Cl)cc12	i

Brought forward from above: five compounds; new compounds follow.
canonical_smiles	GIRK2 activ
O=C(O)CCC/C=C\C[C@@H]1C(=O)C[C@@H](O)[C@@H]1/C=C/[C@@H](O)CC1CCCCC1	i
COc1ccc2nc(N(CCN3CCOCC3)C(=O)C3CCCCC3)sc2c1	i
O=C(NCc1ccc(Cl)cc1)c1cc(=O)c(OCc2ccc(F)cc2)co1	i
O=C(CSc1nccn1-c1cccc(C(=O)NCc2ccccc2)c1)NCc1ccc(F)cc1	i
O=C1CCCN1CCCNc1nc2c(S(=O)(=O)c3ccccc3)nnn2c2ccc(Cl)cc12	i
O=C(C(c1ccccc1)c1ccccc1)N1CCC(Oc2ccc(C(F)(F)F)cn2)CC1	i
CN(C)CC1COCCN1C(=O)c1nc2ccccc2s1 (centres undefined)	i
CCCc1nnsc1C(=O)N1CCC(Oc2cnccn2)CC1	i
Cc1cc(C(O)CCNC(=O)C(=O)Nc2ccc(C)c(C)c2)c(C)o1 (centres undefined)	i
O=c1c(S(=O)(=O)N2CCCC2)cccn1Cc1noc(Cc2ccccc2)n1	i
CCCCOc1ccc(S(=O)(=O)N2CCC(C)CC2)cc1	i
O=S(=O)(NC1CCN(c2ccc(-c3ccccc3Cl)nn2)CC1)c1cccs1	i
Cn1nc(C(=O)N2CCN(c3nc4c(C(F)(F)F)cccc4s3)CC2)ccc1=O	i
COc1ccccc1NC(=O)NC1CCCC(OC(=O)Nc2ccc(F)cc2)C1 (centres undefined)	i
COc1ccc(CCNC(=O)Cn2nc(-c3ccccc3)ccc2=O)cc1	i
Cc1nnc(C2CCCN(S(=O)(=O)c3ccc(Cl)s3)C2)s1 (centres undefined)	i
Oc1ccc(O)c2c1[C@@H](O)CCC21Oc2cccc3cccc(c23)O1	i
Cc1cc(C(F)(F)F)nc(CCNC(=O)c2nc3ccccc3s2)n1	i
Cc1cc(C)cc(NC(=O)Cn2ccn(-c3ccc(F)c(F)c3)c(=O)c2=O)c1	i
CC[N+]1(CC(O)COc2ccc(C34CC5CC(CC(C5)C3)C4)cc2)CCCC1 (centres undefined)	i
O=S(=O)(c1cc(F)cc(F)c1)N1CCN(CC(O)C2CC2)CC1 (centres undefined)	i
Cc1cc(C)n(-c2ccc(=O)n(CCNC(=O)c3ccc(=O)n(C)n3)n2)n1	i
Cc1nnc(C2CCCN(C(=O)c3ccc(Cn4ccnc4)cc3)C2)s1 (centres undefined)	i
COc1ccccc1C1(CNC(=O)Cn2cnc3ccccc3c2=O)CCOCC1	i
O=C(c1nnn(-c2ccc(C(F)(F)F)cc2)n1)N1CCC(O)CC1	i
COc1ccc(CNC(=O)Nc2ccc3c(c2)N(C(=O)c2ccccc2)CCC3)cc1OC	i
COc1ccc(CC(C)(O)CNC(=O)c2ccc(F)cc2Cl)cc1 (centres undefined)	i
CCOC(=O)Cc1csc(NC(=O)Cn2c(=O)[nH]c3ccccc3c2=O)n1	i
Cc1nnsc1C(=O)N1CCC(CSCc2ccco2)CC1	i
O=C(NCC1CCN(C(=O)c2cccnc2)CC1)Oc1ccccc1	i
Cn1c(=O)n(CCCO)c(=O)c2c1nc1n2CCCN1c1ccccc1	i
CCOC(=O)C(=O)N1CCC(Cn2c(COc3ccccc3)nc3ccccc32)CC1	i
COc1ccccc1NS(=O)(=O)c1ccc(N2C(=O)CCC2=O)cc1	i
COc1ccc(C)cc1S(=O)(=O)NCC(c1ccc(F)cc1)N1CCN(C)CC1 (centres undefined)	i
C=CCCC(=O)NCc1cnn2ccccc12	i
CC(C)CNC(=O)C1CCN(c2ncccc2-c2nc(-c3ccccc3)no2)CC1	i
Nc1c(C(=O)c2ccc(C#CCN3CCOCC3)cc2)cnn1-c1ccc(F)cc1	i
CCOC(=O)CCC(=O)N1CCC(Cn2cnc3ccccc32)CC1	i
CCSc1nnc(NC(=O)CN2CCC(c3cccs3)CC2)s1	i
COC(=O)c1ccc(NC(=O)C(=O)NCCCn2ccnc2)cc1	i
COc1ccc(C(=S)N2CCN(C(=S)c3c[nH]c4ccccc34)CC2)cc1	i
CC(C)CC(=O)N1CCN(Cc2nc(C3CC3)cs2)CC1	i
COc1ccccc1OCCCC(=O)Nc1nnc(C(C)C)s1	i
Cc1noc(C)c1CSc1nccn2nc(-c3ccccc3)cc12	i
OC(CN1CCN(Cc2cc(F)cc(F)c2)CC1)c1ccco1 (centres undefined)	i
O=C(O)C1CCN(S(=O)(=O)c2ccccc2[N+](=O)[O-])CC1	i
CCCOC(=O)c1ccc(Oc2c(C)oc3cc(OC(=O)N(C)C)ccc3c2=O)cc1	i
Cc1ccc(NC(=O)Cn2nc3c(Oc4ccccc4)nccn3c2=O)c(Br)c1	i
O=C(NCC1CCN(C2CCCC2)CC1)C(=O)NCC(F)(F)F	i
COc1ccccc1OCC(=O)N1CCC(Oc2ccccn2)CC1	i
CCN(CC)C(=O)c1cnc2nc(C)ccc2c1Nc1ccc(F)c(C)c1	i
O=C(c1cc(-c2cccs2)[nH]n1)N1CC(c2nc(-c3ccncc3)no2)C1	i
O=C(Nc1ccc(F)cc1)c1ccc(=O)n(Cc2cccc([N+](=O)[O-])c2)c1	i
CCCCS(=O)(=O)N1CCN(C(=S)c2cccc(Br)c2)CC1	i
O=C(c1nc2ccccc2s1)N1CCC(CSC2=NCCS2)CC1	i
COc1ccc(CNC(=O)Cn2nc(C)ccc2=O)cc1	i
Cc1onc(-c2ccccc2Cl)c1C(=O)Nc1ccc(-n2nnc(C(N)=O)n2)cc1	i
O=C(O)c1cnc(NCc2ccco2)nc1-c1ccccc1	i
